Compound activity: PubChem, National Center for Advancing Translational Sciences (NCATS)
PK Bst: modulators of Bacillus stearothermophilus pyruvate kinase; partly purified Bacillus stearothermophilus pyruvate kinase, luminescence ATP production; ribose 5-phosphate activator present at AC10; Potency, µM; 1.2% of 51,000 active; AID 361; in the data active means potency below about 11 µM; inconclusive means mostly about 12 µM to 25 µM; inactive means weaker than that;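 the screen sought inhibitors and activators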;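 note: potency is the fitted concentration of half-maximal effect; scaled between full activation by ribose 5 phosphate and full inhibition by luteolin; about four in five hits inhibit and the cells do not say which; series up to 57 µM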
TsaE inh: inhibitors of E. coli YjeE (TsaE); Potency, µM; 0.05% of 71,000 active; P0AF67; purified YjeE, fluorescence polarisation of a bound ADP probe; active = well fitted falling curve; inconclusive = weaker or top-dose-only fall, or a rising curve; inactive = flat or poorly fitted curve;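 note: top concentration of the series not given in the record; excess ADP was the control for the full effect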
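Purified YjeE (10 uM) with BODIPY Texas Red-labeled ADP probe (2 uM); compounds pin-transferred, 15 min at room temperature. Binding inhibition read as decreased fluorescence polarization; ADP titration as control.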
Numbers without * were called inactive; i = inactive; x = no result given. An excerpt; count on the stated rates, not on these rows.

Molecule	PK Bst	TsaE inh
O=C(Nc1ccc(S(=O)(=O)N2CCCCC2)cc1)c1cnccn1	>57	i
CCCCOC(=O)c1ccc(NS(=O)(=O)c2cc(-c3nnnn3CC)ccc2OC)cc1	x	i
CCNc1ncc2ncc(=O)n(Cc3cccc(OC)c3)c2n1	x	i
COc1cc(C(=O)N2CCN(C(=O)c3ccco3)CC2)cc(OC)c1OC	x	i
NC(=O)c1ccccc1NS(=O)(=O)Cc1ccc(Cl)cc1	>57	i
Nc1nonc1OCCc1ccccc1	>25.6	x
CCn1c(SCC(=O)NCc2ccco2)nc2c1c(=O)n(C)c(=O)n2C	>57	i
CCOc1cc(C2C(C(=O)c3ccc(C)o3)=C(O)C(=O)N2CCc2ccccc2)ccc1O (stereo not drawn)	>57	i
O=C(Cn1ccc2ccccc2c1=O)NCCC(=O)N1CCN(C(=O)c2ccco2)CC1	>57	i
CCSc1nnc(NC(NC(=O)c2ccco2)(C(F)(F)F)C(F)(F)F)s1	>25.6	x
O=c1oc2c3c4c(cc2c(C(F)(F)F)c1CCN1CCOCC1)CCCN4CCC3	>25.6	x
CC1(C)CC(=O)c2cc(C(=O)NCc3ccco3)c(=O)n(-c3ccccc3)c2C1	>57	i
O=C(CSc1nc2cc(Cl)ccc2o1)N1CCOCC1	>57	i
CCOC(=O)c1ccc(NC(=O)CSc2nnc(-c3cccs3)n2CC)cc1	>57	i
CCOCCOC(=O)C1=C(C)N(C)C(=O)NC1c1cc(Cl)c(O)c(OC)c1 (stereo not drawn)	>57	i
Cc1noc(C)c1CSCC(=O)OCC(=O)Nc1sccc1C#N	>57	i
O=C(CS(=O)(=O)c1ccccc1)c1ccc2c(c1)OCCO2	i	i
CCn1cc(C(=O)NCC(=O)OC)c2cc(OC)c(OC)cc2c1=O	>57	i
Cc1ccccc1OCC(O)Cn1c(SC(C)C)nc2c1c(=O)[nH]c(=O)n2C (stereo not drawn)	>57	i
CCCCC1CC1C(=O)Nc1ncc2c(n1)CC(C)(C)CC2=O (stereo not drawn)	>57	i
COCCOC(=O)c1c(C)oc2ccc(O)c(CN3CCC(C)CC3)c12	>57	i
O=C1c2cccnc2C(=O)N1c1cccc(-c2nc3ccccc3o2)c1	i	i
O=C(CCc1nc2ccccc2[nH]1)Nc1ccc2c(c1)OCCO2	x	i
O=C(Nc1ccc(SC(F)F)cc1)c1ccc2nccnc2c1	x	i
CCOc1ccc(CCNC(=O)CN(C)S(=O)(=O)c2cccc3nsnc23)cc1OCC	>57	i
CCC1CCCCN1S(=O)(=O)c1ccc2c(c1)CCN2C(=O)C1CCC1 (stereo not drawn)	>57	i
Cc1ccc(-n2[nH]c(C)c(C=Nc3cc(C)ccn3)c2=O)cc1	>25.6	x
CN(C)C(=O)N1CCN(C(=O)c2ccco2)CC1	x	i
CNCc1ccc(OCc2ccccc2)c(OC)c1	>57	i
CCC(=O)NC1(C(F)(F)F)C(=O)Nc2c1c(=O)n(C)c(=O)n2C (stereo not drawn)	>57	i

2 entries from above, reformatted:
Under each structure – PK Bst | TsaE inh
CCC1CCCCN1S(=O)(=O)c1ccc2c(c1)CCN2C(=O)C1CCC1 (stereo not drawn)
  >57 | i
CCSc1nnc(NC(NC(=O)c2ccco2)(C(F)(F)F)C(F)(F)F)s1
  >25.6 | x

Next compounds:
Molecule	PK Bst	TsaE inh
N#Cc1nc(COc2ccccc2)oc1N1CCCC1	>25.6	x
Brc1ccccc1OCCCN1CCOCC1	x	i
CC1=C(C(=O)OC(C)C)C(c2ccc(N(C)C)cc2)C2=C(CC(C)(C)CC2=O)N1 (stereo not drawn)	>57	i
Cc1noc(C)c1S(=O)(=O)N1CCC(C(=O)NC2CCCc3ccccc32)CC1 (stereo not drawn)	>57	i
N#Cc1c(-c2ccccc2)nc(SCc2nc(N)nc(N3CCCCC3)n2)[nH]c1=O	>57	i
Cc1cnc(CNc2ncnc3ccc(-c4cccc(NS(C)(=O)=O)c4)cc23)cn1	x	i
COc1ccc(-n2c(=O)c(-c3ccc(Cl)cc3)nc3cnc(N4CCNCC4)nc32)cc1	x	i
O=c1nc(N2CCCC2)nc(Nc2ccccc2)[nH]1	>57	i
Cc1cccc2c1nc(-c1ccccc1)n1cnnc21	>57	i
OCC1OC(n2nc3ccccc3n2)C(O)C(O)C1O (stereo not drawn)	>57	i
Cc1cc(-n2c(C)cc(C(=O)COc3ccc4ccc(=O)oc4c3)c2C)no1	>57	i
COc1ccc(S(=O)(=O)N2CCC(O)(c3ccc(Cl)cc3)CC2)cc1	>57	i
CC(=O)N1CC=CC1(CC(C)C)C(=O)NCC1CC1 (stereo not drawn)	x	i
c1cncc(CNc2cc(-c3ccc4c(c3)OCO4)ncn2)c1	x	i
C/C(=N\O)c1ccc(N2C(=O)C3CC=C(Cl)CC3C2=O)cc1 (stereo not drawn)	x	i
CCCCn1c(-c2ccc(Cl)cc2)nc2c(=O)n(C)c(=O)[nH]c21	>25.6	x
CCc1cc(C(=O)OC)c(NC(=O)CCCC(=O)O)s1	>11.4	i
O=C1Nc2ccccc2C12OCCO2	>57	i
C/C(N)=C(/C#N)C(=O)CN1CCCCC1	>57	i
O=C(CCCOc1ccccc1)N1CCN(C(=O)c2ccco2)CC1	>57	i
CCCC(=O)Nc1cccc(-c2nc3ccccc3o2)c1	>57	i
Cc1cc(C(=O)Nc2nnc(-c3ccccc3)s2)no1	>57	i
CC(=O)C1=C(O)C(=O)N(c2cc(C(C)(C)C)on2)C1c1ccc(C(C)C)cc1 (stereo not drawn)	>57	i
CCCSc1nc2c(c(=O)n(C)c(=O)n2C)n1Cc1ccc(C)cc1	>57	i
Cc1cccc(NC(=O)C2CC(O)CN2C(=O)OCc2ccccc2)c1 (stereo not drawn)	>57	i
Cn1c(=O)oc2cc(S(=O)(=O)N3CCCC(C(=O)N4CC=C(c5ccccc5)CC4)C3)ccc21 (stereo not drawn)	x	i
Cn1cccc1Cc1nnc(SCC(=O)N2CCc3ccccc32)n1CCc1ccccc1	x	i
CCn1c(SCC(=O)C(C)(C)C)nnc1-c1ccccn1	>57	i
COc1ccc(-c2noc(-c3ccccc3C(=O)Nc3cccnc3)n2)cc1OC	>57	i
COc1cccc(CNS(=O)(=O)c2cn(C)cn2)c1	>57	i

Single records, from the list above. Order of screens: PK Bst	TsaE inh
Cn1cccc1Cc1nnc(SCC(=O)N2CCc3ccccc32)n1CCc1ccccc1 across the screens: x	i
CCCCn1c(-c2ccc(Cl)cc2)nc2c(=O)n(C)c(=O)[nH]c21 across the screens: >25.6	x
CCCC(=O)Nc1cccc(-c2nc3ccccc3o2)c1 across the screens: >57	i
O=C1Nc2ccccc2C12OCCO2 across the screens: >57	i
OCC1OC(n2nc3ccccc3n2)C(O)C(O)C1O (stereo not drawn) across the screens: >57	i

(more compounds)
Molecule	PK Bst	TsaE inh
NC(N)=N/N=C\c1ccc(O)c(C(=O)O)c1	x	i
CCOC(=O)COc1ccc2c(c1)c(C(=O)OCC)c(C)n2CC	>57	i
O=C(Nc1cnccn1)c1cccnc1	>57	i
O=C(CN1C(=O)NC2(CCc3ccccc32)C1=O)Nc1cc(C(F)(F)F)ccc1N1CCOCC1 (stereo not drawn)	>57	i
Cc1ccc(C2C3=C(CCCC3=O)Nc3[nH]c(=S)[nH]c(=O)c32)cc1 (stereo not drawn)	>57	i
CCOC(=O)c1c(CN2CCCCC2C)oc2ccc(OC)cc12 (stereo not drawn)	>57	i
CCc1c(C)sc(NC(=O)OC)c1C(=O)N1CCCCC1	>57	i
Cc1ccnc(N2C(=O)OC(C)(C)C2(C)O)c1 (stereo not drawn)	>57	i
C=CCn1c(=O)c2c3c(sc2n2c(Nc4ccc(OC)cc4)nnc12)CCCC3	>57	i
CCOCC(=O)Nc1ccc(-c2cn3cccnc3n2)cc1	>57	i
COc1ccc2[nH]cc(CCNc3ncncc3-c3ccc(C(=O)N(C)C)cc3)c2c1	x	i
CC1(C)S[C@@H]2[C@H](C(=O)O)N=C(Cc3ccccc3)N2[C@H]1C(=O)O	x	i
O=C(CCn1c(=O)sc2ccccc21)NCc1ccco1	x	i
CS(=O)(=O)N(CCc1ccccc1)CC(N)=O	>57	i
COc1ccc(N(CC(=O)NCc2cccs2)S(=O)(=O)c2cccnc2)cc1	x	i
CCCCOC(=O)Cn1c(=O)c2c(nc3n2CCCCN3c2ccc(C)cc2)n(C)c1=O	>57	i
CC(=O)Nc1ccc(C(=O)OC2CCOC2=O)cc1 (stereo not drawn)	>57	i
COc1ccc(CN2C(=O)CN=C2Nc2cc(C)ccc2C)cc1	>57	i
COc1ccc(OC)c(NC(=O)c2ccc(S(=O)(=O)N3CCN(C)CC3)cc2)c1	>57	i
CC1Oc2ccccc2N(CC(=O)Nc2ccc3c(c2)OCCO3)C1=O (stereo not drawn)	>57	i
CCN(CC)C(=O)N1CCN(C(=O)c2ccc(C)cn2)CC1	>57	i
Cc1c(OCC(=O)OC(C)C)ccc2c3c(c(=O)oc12)CCC3	x	i
CCOC(=O)c1ccccc1NC(=O)c1ccc(N(C)S(C)(=O)=O)cc1	>57	i
COc1ccc2cc(C(=O)CCC(=O)O)ccc2c1	x	i
CCCCNc1nc2ccccc2nc1NS(=O)(=O)c1cccs1	>57	i
CCc1nnc(NC(=O)CSc2nnc(-c3ccc(O)cc3)n2-c2ccccc2)s1	>57	i
CCCc1ccc(OCc2nc(-c3ccc(NC(=O)c4ccco4)cc3)no2)cc1	>57	i
Cc1cc(C(=O)O)ccc1[C@H](N)C(=O)O	x	i
CCN1C(=O)c2n[nH]c(C(=O)OC)c2C1=O	>57	i
COCCOC(=O)c1[nH]c2c(c1C)C(=O)CC(c1ccccc1)C2 (stereo not drawn)	>57	i
O=C1CCC(=O)N1CNc1ccc(Oc2ccccc2)cc1	>57	i
CCOC(=O)Nc1ccc(Oc2ccccc2)cc1	x	i
CC(=O)c1c(C)[nH]c(C(=O)OCc2nnc(-c3ccccc3)o2)c1C	>57	i
COC(=O)CSc1nnc(CNC(=O)c2ccco2)n1-c1ccc(F)cc1	>57	i
O=C(CSc1nnnn1-c1ccc2c(c1)OCCO2)c1cccc2c1OCCO2	>57	i
CCN(CC)CCCNc1nc2ccccc2[nH]1	x	i
CCOC(=O)c1ccc(NC(=O)c2nccnc2C(=O)O)cc1	x	i
NC(=O)Cn1c(=O)n(CCCC(=O)NC2CCN(Cc3ccccc3)CC2)c(=O)c2ccccc21	>57	i
Cc1ccc(O)c(C(=O)c2cc(C#N)c(=O)n(CC3CCCO3)c2)c1 (stereo not drawn)	>57	i
CN(C)c1nc(SCCOC(=O)c2ccccc2)nc(N(C)C)n1	>57	i
Cc1ccc(S(=O)(=O)c2nc(S(C)(=O)=O)sc2N(C)C)cc1	x	i
S=c1[nH]nc(-c2ccccc2)n1CC1CCCO1 (stereo not drawn)	>57	i
O=C(c1ccco1)N1CCN(C(=O)c2cc3c(s2)-c2ccccc2OC3)CC1	x	i
Brc1ccccc1-c1nnc(CSc2nncn2-c2ccccc2)o1	>57	i
C#CCN(C#N)c1nc(NCC)nc(NC(C)C)n1	>57	i
CC1CCc2sc3ncnc(N4CCOCC4)c3c2C1 (stereo not drawn)	i	i
O=C(O)CCN1CCc2ccccc21	>57	i
CC(C)c1nnc(NC(=O)Cn2nc(-c3ccc4c(c3)OCCO4)ccc2=O)s1	>57	i
COc1ccc(NC(=O)C(C)NS(=O)(=O)c2ccccc2)cc1Cl (stereo not drawn)	>57	i
COC(=O)C1=C(C)N(c2cccc3ccccc23)C(=O)C1	>57	i
O=S(=O)(Nc1ccc2c(c1)nc1n2CCOC1)c1ccc(Cl)cc1	i	i
Clc1cccc(CSc2nnc(-c3cccnc3)n2Cc2ccco2)c1	>57	i
O=C(CS(=O)CC(=O)Nc1ccc(Cl)cc1)NCC1OCCc2ccccc21 (stereo not drawn)	>57	i
Nc1ncnc2c1ncn2CCN1CCCCC1	>57	i
CCOC(=O)CC(=O)CSc1nc(C)cc(-c2cccnc2)c1C#N	>57	i
CCC1Oc2ccccc2N(CC(=O)NCCCN2CCOCC2)C1=O (stereo not drawn)	x	i
Cc1cccc(C)c1OCC(=O)Nc1ncn[nH]1	>57	i
CCCC(=O)Nc1cccn(Cc2ccccc2Br)c1=O	>57	i
CCN(CC)CCc1c(C)[nH]c(C(=O)OCc2ccccc2)c1C	>57	i
N=c1nc(N)nc(N)n1-c1ccc(S(N)(=O)=O)cc1	x	i

(list continues)
Molecule	PK Bst	TsaE inh
Cn1c(CCN2CCCCC2)nc2cc(NC(=O)C3CCCCC3)ccc21	>57	i
CC(NC(=O)Nc1cccnc1)(C(F)(F)F)C(F)(F)F	>25.6	x
CC(=O)Nc1ccc(OC/C=C(\C)Cl)cc1	x	i
CN(C)C(=O)c1ccc(-c2cncnc2NCc2cccs2)cc1	x	i
CCCS(=O)(=O)N1CCCC(C(=O)NCCN(Cc2ccccc2)C(C)C)C1 (stereo not drawn)	>57	i
COc1cc2[nH]c3c(N4CCN(c5ccc(Cl)cc5)CC4)ncnc3c2cc1OC	>57	i
Cc1cc(C)c2oc(=O)cc(CN3CCOCC3)c2c1	>57	i
Cc1ccc2c(C)nc(NC3=NCN(C(C)C)CN3)nc2c1	>57	i
